From PubChem
LANA-nucl inh = inhibitors of KSHV LANA-nucleosome binding, primary screen, biochemical, fluorescence polarization, FITC-LANA1-23, chicken nucleosomes; FITC-LANA1-23 / chicken nucleosome fluorescence polarization; active compounds read low; z-score (concentration not given with the values); 51,000 compounds, 0.3% hits; AID 720717, 2013;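 active means both repeat wells score below -2 in polarization z-score versus plate sample wells, excluding overly bright wells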;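 further: 100 nL library stock added to about 30 µL; numbers are from one replicate; some results filed as inactive read as strong as hits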
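Material: Purified chicken nucleosomes with FITC-labelled LANA N-terminal peptide (1-23) | Reagent: 50 nM FITC-LANA1-23 probe | Medium: TEN-BT buffer, pH 7.5 | Times: 10–45 min incubation at room temperature | Detection: Fluorescence polarization | Replication: Duplicates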
BasE inh = BasE siderophore enzyme inhibitors, primary screen, biochemical, Acinetobacter baumannii ATCC 17978, fluorescence polarization. 84,000 compounds, 0.1% hits. inhibition, % (concentration not given with the values). AID 485350, 2010. purified BasE, fluorescence polarization binding displacement;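 active means both replicates above 25% with normal brightness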;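 further: 0% = negative plate control signal and 100% = positive plate control signal; stock transfer was 100 nL into about 30 µL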
An asterisk follows results filed as active; . = no result given; & = joins results of further samples.

SMILES	LANA-nucl inh	BasE inh
CC(=O)Nc1cccc(NC(=O)CCn2cnc3cc(C)c(C)cc32)c1	-0.599	1.0
CN1CCN(S(=O)(=O)c2ccc(SCC(=O)NC3CCCCC3)cc2)CC1	0.731	-0.7
O=C(N/N=C1/CC(c2ccccc2)Oc2ccccc21)C1CC1 (stereo not given)	.	2.6
Cc1cc(C(=O)O/N=C(\N)c2ccccc2)nn1C(C)(C)C	-0.446	-2.2
Cc1cc(C)c(C#N)c(SCCN2C(=O)c3ccccc3C2=O)n1	.	0.7
O=C1CC2CCC(CN1)N2CC(=O)N1c2ccccc2Sc2ccc(C(F)(F)F)cc21 (stereo not given)	-0.37	0.0
c1ccc2c(c1)nc(Nc1ccc(N3CCCCC3)cc1)c1nncn12	0.0275	6.3
FC(F)(F)c1cc(-c2nnc(N3CCOCC3)o2)cc(C(F)(F)F)c1	.	-0.5
COc1cc2c(cc1OC)-c1cc3ccc(OC)c(OC)c3c[n+]1CC2	-0.411&0.371	1.1&-3.3
Cc1cc(-c2csc(-c3ccc(O)cc3)n2)c(C)n1C1CC1	.	0.4
CC(C)NC(=O)Cn1cnc2ccccc2c1=O	.	0.0
Cc1ccc(-c2cc(Cc3ccccc3)c(=O)[nH]n2)cc1	.	1.3
NC(=O)Nc1ccc(F)cc1F	0.94	0.1
CC(=O)Nc1ccc(F)cc1NC=C(C#N)C#N	1.92	-3.5
CCCCn1nc(C(=O)N/N=C/c2ccccc2OCC(=O)O)c2ccccc2c1=O	.	0.4
O=C(/C=C/c1ccco1)Nc1ccc2c(c1)C(=O)N(c1ccccc1)C2=O	-0.064	-0.6
C=C1c2ccccc2N=C(SCC(=O)Nc2ccc(F)cc2F)N1C	.	-0.1
CCc1cccc(NC(=S)N(CCN(C)C)C2CCN(C(C)C)CC2)c1	0.233	-0.8
CCCNS(=O)(=O)c1ccc(OCC(=O)N2CCCCC2)cc1	-0.08	-1.4
CCC(C)C(=O)O[C@H]1C[C@H](O)C=C2C=C[C@H](C)[C@H](CC[C@@H](O)C[C@@H](O)CC(=O)O)C21 (stereo not given in full)	-0.0125&0.553	0.4
O=C(NC1CCCCCCC1)c1ccc(NC2=NC3CS(=O)(=O)CC3S2)cc1 (stereo not given)	0.988	1.0
c1ccc2oc(NC3=NCN(CCCN4CCOCC4)CN3)nc2c1	-1.51	1.0
COc1cc(NC(N)=S)c(OC)cc1Cl	.	0.8
O=C(N/N=C/C=C/c1cn(Cc2ccccc2)nn1)C1CC1	.	-1.0
O=C1c2ccccc2C(=O)N1C1CCN(Cc2ccccc2)CC1	0.366	.
Additional compounds follow.
SMILES	LANA-nucl inh	BasE inh
CN1C(=O)C(C)(C)c2cc(S(=O)(=O)NCCc3ccco3)ccc21	.	-0.8
CC(=O)n1c(O)c(N=NC(=O)COc2ccc(Cl)cc2)c2ccccc21	-0.151	-2.1
COc1ccc(-c2cc(C(=O)NNC3=NCCCCC3)c3c(C)noc3n2)c(F)c1	.	-0.8
CCOC(=O)c1ccc(S(=O)(=O)N2CCN(/C=C/C(=O)c3ccccc3)CC2)cc1	.	-4.9
CCc1ccc(-c2csc(Nc3ncccn3)n2)cc1	0.552	3.8
NC[C@H](O)c1ccc(O)c(O)c1	0.0615&-0.214&-0.288&0.339	0.8
Cc1cc(NC(=O)COC(=O)Cc2ccsc2)no1	.	0.8
C=CCn1c(Cl)c(/C=N/NC(=O)c2cc(C)oc2C)s/c1=N\S(=O)(=O)c1cccs1	.	-26.4
Oc1ccccc1-c1nnc(SCc2ccccc2)o1	0.386	-0.6
CCC1CCCCN1C(=S)Nc1ccc(OC(F)F)cc1 (stereo not given)	-0.4	3.2
CC(=O)Nc1c(C)ccc(NC(=O)C2C(C=C(C)C)C2(C)C)c1C (stereo not given)	0.53	0.9
C/C(=C\C(=O)Nc1cscc1C)C(=O)O	-0.578	3.5
CS(=O)(=O)N1CCN(c2ncnc3c(-c4ccc(Cl)cc4)nsc23)CC1	1.08	1.5
COc1ccc2c3c(c(=O)oc2c1OCC(=O)C(C)(C)C)CCCC3	-0.129	-1.9
NNC(=O)c1ccc(-n2cnnn2)cc1	.	-0.8
COc1ccc(OC)c(NC(=O)CCN2CCN(Cc3cccc4ccccc34)CC2)c1	-1.26	-3.1
N#CC(C#N)=C(N)/C(C#N)=C/c1ccc2[nH]ccc2c1	0.18&0.28	-2.4&-6.9
C=CCn1c(SCC(=O)/C(C#N)=C(\c2ccc(F)cc2)N2CCOCC2)nnc1-c1ccccc1	.	0.9
Cc1ccc2c(c1)cc(CN(C(=S)NCc1ccco1)C1CCCCC1)c1nnnn12	0.0225	0.3
O=C(NCCCN1CCCC1=O)c1ccc2c(c1)OCCO2	-0.362	0.8
COC(=O)/C(C#N)=C/N(C)C	-0.515	3.7
CCSc1nnc(NC(=O)c2cccc(S(=O)(=O)N3CC(C)CC(C)C3)c2)s1 (stereo not given)	.	0.6
O=C1NCCN=C1c1cc(Cl)sc1Cl	.	-0.2
O=C(NN1CC(C(=O)OCc2ccccc2F)CC1=O)c1ccccc1 (stereo not given)	0.164	-1.0
COc1ccccc1NC(=O)CON	0.046	.

4 consecutive entries out of the list so far, for reference:
SMILES	LANA-nucl inh	BasE inh
CCSc1nnc(NC(=O)c2cccc(S(=O)(=O)N3CC(C)CC(C)C3)c2)s1 (stereo not given)	.	0.6
O=C1NCCN=C1c1cc(Cl)sc1Cl	.	-0.2
O=C(NN1CC(C(=O)OCc2ccccc2F)CC1=O)c1ccccc1 (stereo not given)	0.164	-1.0
COc1ccccc1NC(=O)CON	0.046	.

Random excerpt: three records from the list.
SMILES	LANA-nucl inh	BasE inh
O=C(NN1CC(C(=O)OCc2ccccc2F)CC1=O)c1ccccc1 (stereo not given)	0.164	-1.0
COc1ccc(-c2cc(C(=O)NNC3=NCCCCC3)c3c(C)noc3n2)c(F)c1	.	-0.8
CCc1ccc(-c2csc(Nc3ncccn3)n2)cc1	0.552	3.8

Continued:
SMILES	LANA-nucl inh	BasE inh
S=C(NNc1ccccc1)Nc1ccccc1	0.478	0.2
CN1C(=O)S/C(=C\c2ccccc2Br)C1=O	0.076	2.7
CC(C)CC1(c2ccccc2)NC(=O)NC1=O (stereo not given)	.	1.6
N#C/C(C(=O)c1ccccc1)=C1/SC=C(N)N1c1ccccc1	9.76	-23.0
CCOc1ccccc1OC(=O)C(C)(C)C	-0.179	3.9
COc1cccc(N2CCN(C(=O)C3=NNC(=O)CC3)CC2)c1	.	1.4
COc1ccccc1-c1cc(NC(=NCC2CCCO2)SC)n[nH]1 (stereo not given)	-0.507	-0.7
Cc1ccc2cc(C3CC(c4ccco4)=NN3S(C)(=O)=O)c(=O)[nH]c2c1 (stereo not given)	.	-1.2
CO[C@@H]1[C@@H](O[C@@H]2O[C@H](C)[C@@H](O[C@H]3C[C@@](C)(O)[C@H](O)[C@H](C)O3)[C@H](N(C)C)[C@H]2O)[C@@H](CC=O)C[C@@H](C)[C@@H](O[C@H]2CC[C@H](N(C)C)[C@@H](C)O2)/C=C/C=C/C[C@H](C)OC(=O)C[C@H]1O	0.308&-0.0815	2.4
CC(=O)Nc1ccc(SCC(=O)NC2(C#N)CCCCC2)cc1	.	1.5
NC(=O)c1nnn(Cc2ccc(Cl)cc2)c1N	0.198	2.4
Cc1ccc(Cn2ccsc2=NC(=O)COC(=O)C2CC2)cc1	.	-2.7
c1ccc(CN2CCN(C3=Nc4cccc5cccc3c45)CC2)cc1	.	-1.5
NC(=O)c1ccsc1NC(=O)Cn1[nH]c(=O)c2ccccc2c1=O	.	11.5
O=C(COC(=O)c1cnc(Cl)c(Cl)c1)c1ccccc1	.	2.3
CC1(C)CC2CC(C)(CN2CC(=O)C(C#N)c2ccccc2)C1 (stereo not given)	.	2.0
COc1cccc(-c2ccc(=O)n(CC(=O)N3CCN(c4ccccc4)CC3)n2)c1	0.65	-0.6
NC(=O)CCSc1ccc(Cl)cc1	.	0.9
COc1ccccc1/C=C1/C(=O)ON=C1C	.	0.1
CCOC(=O)N1CCC(N2C(=O)c3ccccc3C2Nc2ccc(CC)cc2)CC1 (stereo not given)	0.005	-0.3
O=C1/C(=C\c2cccs2)SC(=S)N1CCCC(=O)N1CCCc2ccccc21	.	2.8
N#Cc1ccccc1OCC(=O)c1ccc2c(c1)OCCO2	.	1.8
COc1ccc(Nc2cc(=O)oc3ccccc23)cc1	-0.835	-2.0
CC(NC(=O)CCc1cccs1)c1ccc(-n2ccnc2)cc1 (stereo not given)	.	-1.3
Cc1ccc(Nc2nc(N)nc(CN3CCCCCC3)n2)c(C)c1	-0.806	-2.2
Next records:
SMILES	LANA-nucl inh	BasE inh
CC(=O)Nc1cccc(Oc2ccc3c(c2)C(=O)N(c2ccc(Oc4ccc(C)c(C)c4)cc2)C3=O)c1	.	-0.1
Cc1sc2ncnc(SC3CCOC3=O)c2c1C (stereo not given)	.	3.1
O=S(=O)(c1cccs1)N1CCN(Cn2c(NCCO)nc3ccccc32)CC1	.	2.0
Cc1ccc(Nc2ncnc3ccccc23)cc1	-0.0595	-1.6
CCNc1nc2ccccn2c(=O)c1/C=C1\SC(=S)N(Cc2ccco2)C1=O	3.23	-18.9
CCCn1c(=O)[nH]c(=O)c2c(C(=O)O)cc(-c3ccccc3)nc21	.	0.4
Cc1nnc(SCCCCSc2nnc(C)n2N)n1N	0.133	-2.9
Cc1ccccc1-c1nnc(N(C)C(=O)C2CC2)s1	-0.301	0.3
CC1(C)CC(=O)C(=Cc2c[nH]c3ccccc23)C(=O)C1	-0.545	-0.3
O=C(COc1ccccc1Cl)N1CCCc2ccccc21	.	2.6
CC(C)Cn1c(N2CCN(C(=O)Nc3ccc(Cl)cc3)CC2)nc2ccccc21	0.396	-0.8
O=C(O)CC1(CC(=O)NCc2ccccn2)CCCCC1	.	4.2
O=C(O)c1c2c(nc3ccccc13)CSc1ccc(Cl)cc1-2	.	2.1
Brc1ccc(CNc2ccc3cn[nH]c3c2)s1	-0.456	3.5
CC1(CCc2ccc3c(c2)OCO3)NC(=O)c2ccccc2N1 (stereo not given)	1.07	-2.9
Cc1cccc2c(N=NC(=O)OC(C)(C)C)c(O)[nH]c12	.	1.8
Cc1nc2cc3ccccc3cc2c(=O)[nH]1	0.855	-1.4
N#CCSc1ncnc2ccccc12	.	-3.3
O=C(c1cccs1)N(c1ccc(F)cc1)c1nc2ccccc2s1	.	0.0
Cn1c(=O)n(C)c2cc(C=C3C(=O)c4ccccc4C3=O)ccc21	-0.477	-14.8
O=C(CSc1nnc2c(n1)CCCC2)c1ccc(Cl)cc1	0.103	-0.1
Cc1cc(NS(=O)(=O)c2ccc(N3C(=O)C=CC3=O)cc2)no1	.	5.0
O=C(NC1=NCCS1)[C@H](Cc1ccccc1)N1C(=O)c2ccccc2C1=O	.	1.3
Nc1ccc(C(=O)Nc2ccc(O)c(-c3nc4ccccc4o3)c2)cc1	.	1.2
CCSc1nc2c(c(=O)n1Cc1ccco1)C1(CCCCC1)Cc1ccccc1-2	-0.715	1.8
Next section
SMILES	LANA-nucl inh	BasE inh
CCCCC/C=C\C/C=C\C/C=C\C/C=C\CCCC(=O)O	-0.179	-3.6
CCN(CC(=O)Nc1ccccc1C(=O)Nc1ccccc1)CC(=O)NC1CCS(=O)(=O)C1 (stereo not given)	.	-0.4
c1ccc(CNC2=NCCCC2)cc1	.	0.1
N#C/C(C(=O)Nc1ccc(SC(F)F)cc1)=c1/s/c(=C\c2ccco2)c(=O)n1-c1ccccc1	.	-12.5
O=C(O)CCC(=O)Nc1ccc(Oc2ncnc3cc(Cl)ccc23)nc1	-1.53	-1.8
COC(=O)c1ccc(CSc2cc(C)[nH]c(=O)n2)o1	0.436	4.2
COc1ccccc1NC(=O)CSc1nnc2sc3ccccc3n12	0.442	-0.8
CC(c1ccccc1)n1c(SCc2nc(-c3ccc(C(C)(C)C)cc3)no2)n[nH]c1=O (stereo not given)	0.534	2.0
C/C(COc1ccccc1OCC(=O)O)=N\NC(=O)c1ccncc1	0.172	1.7
O=C(Cn1ccc(C(F)(F)F)n1)N1N=CCC1(O)C(F)(F)F (stereo not given)	.	0.3
O=c1[nH]nc(SCc2nnc(-c3ccc(Cl)cc3)o2)n1C1CCCCC1	.	-1.7
COc1ccccc1CNc1ccc(Br)cn1	-0.461	1.5
O=C(NC(OCC1COC(C(F)(F)F)(C(F)(F)F)O1)(C(F)(F)F)C(F)(F)F)c1ccco1 (stereo not given)	0.547	2.1
COc1cccc(C(=O)Nc2ccc(-c3cn4ccccc4n3)cc2)c1	.	-1.5
Cc1ccc(-c2nn(C)c(=O)c3ccccc23)cc1CNS(C)(=O)=O	.	-0.7
CSCc1c(C)nn(C(=O)N(C)C)c1C	0.352	.
O=C1CC(C(=O)O)S/C(=N\N=C2CCCC2)N1 (stereo not given)	1.31	-0.6
Cc1oc(CC(C)C)cc1C(=O)O	0.324	1.2
CC1CCCCC1NC(=O)/C(C#N)=C/c1cccc(O)c1 (stereo not given)	.	-0.1
O=C1CCCc2nc(N3CCOCC3)sc21	1.2	0.0
CC(C)CN(C(=O)CN1CCN(c2ncccn2)CC1)C1CCS(=O)(=O)C1 (stereo not given)	.	0.6

Record cards, as listed above. Values in the order: LANA-nucl inh | BasE inh
`CC(=O)Nc1cccc(NC(=O)CCn2cnc3cc(C)c(C)cc32)c1` is entered as -0.599 | 1.0
`O=S(=O)(c1cccs1)N1CCN(Cn2c(NCCO)nc3ccccc32)CC1` is entered as . | 2.0
`COc1ccccc1NC(=O)CSc1nnc2sc3ccccc3n12` is entered as 0.442 | -0.8

A portion of the library, so the mix of outcomes need not match the whole.
